HIV Env fusion = blocks HIV Env-driven cell-cell fusion | HeLa-JRFL Env/CEM21 cell fusion, luciferase | inhibition, % at 12.3 µM | 360,000 compounds, 1.1% hits;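 active = mean replicate inhibition score of at least 50 and every replicate individually at or above 50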;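 note: 0% = plate neutral controls and 100% = maraviroc near 300 nM; one replicate is shown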
PABP polyA inh = PABP-poly(A) binding inhibition. P11940. PABP-poly(A) RNA binding, fluorescence polarization. inhibition, % at 35 µM. 290,000 compounds, 1% hits. AID 2014;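 active = 50% or more with normal probe brightness, or confirmed in later tests; about a fifth of its hits are not listed in these tables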;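 note: calls also rest on retests at 20 µM and on dose response follow-up; controls were probe without protein and protein plus probe with vehicle; some compounds called inactive have numbers as strong as hits; many hits fall short of the cut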
CSC inhib = cancer stem cell inhibition | cancer stem cell-like cells viability, luminescence | inhibition, % at 7.5 µM | 300,000 compounds, 1.1% hits;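 active = mean at 75% or more and at least half the replicates too; tested in HMLE shEcad cells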;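 note: 0% = median of negative and 100% = median of positive control wells; the first replicate is given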
eIF4H inh = inhibitors of RNA binding by human eIF4H; eIF4H fluorescence polarization binding assay; inhibition, % at 35 µM; 290,000 compounds, 0.94% hits; AID 2012;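 active = 50% or more with normal probe brightness, or confirmed in later tests; about a fifth of its hits are not listed in these tables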;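 note: calls also rest on retests at 20 µM and on dose response follow-up; 0% = protein and probe with vehicle and 100% = probe without protein; strong numbers were not always called active; many hits fall short of the cut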
Rce1 inh = yeast Ras-converting enzyme inhibition; Q03530; yeast membranes, quenched prenylated peptide cleavage fluorescence; calls only; 290,000 compounds, 0.27% hits; AID 2563;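 active = fall in fluorescence gain of 50% or more versus controls, with final raw signal at or below 3038400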;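 note: plate controls were neutral control wells for no effect and wells lacking membranes for full effect; tested at 10 µM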
Target sequence (Q03530 whole entry, looked up): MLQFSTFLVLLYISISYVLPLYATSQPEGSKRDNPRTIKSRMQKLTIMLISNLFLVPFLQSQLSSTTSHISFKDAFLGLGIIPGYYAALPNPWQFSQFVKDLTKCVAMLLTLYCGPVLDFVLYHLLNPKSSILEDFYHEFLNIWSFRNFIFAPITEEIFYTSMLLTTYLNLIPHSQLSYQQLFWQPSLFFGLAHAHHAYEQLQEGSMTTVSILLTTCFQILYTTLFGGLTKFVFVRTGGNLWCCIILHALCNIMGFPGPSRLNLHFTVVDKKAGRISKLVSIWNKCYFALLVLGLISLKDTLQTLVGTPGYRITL
MT1-MMP act inh = inhibitors of human MT1-MMP activation; GFP/RFP ratio change, % at 20 µM; AID 651647; HT1080 RFP-PRO-GFP cells, GFP/RFP ratio fluorescence, overnight; percent of plate control window, DMSO zero; 360,000 compounds, 0.061% hits;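 active = GFP/RFP ratio change of at least 30% with cell ATP level not reduced by more than half and red fluorescence within 50% of control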; note: strong numbers were not always called active
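Assay system: HT1080 RFP-PRO-GFP cells. Benchmarks: DMSO vehicle wells and RFP-L50D-GFP reporter cell wells. Times: overnight cell settling, then overnight compound exposure, 37 °C, 5% CO2. Compound: 20 µM single dose, 1% DMSO. Read-out basis: GFP/RFP fluorescence ratio.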
Yeast UUG start = alters start codon recognition fidelity in yeast. 350,000 compounds, 0.13% hits. S. cerevisiae UUG-firefly luciferase reporter, luminescence/redox ratio. activity score, % at 18.7 µM;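 active = replicate mean at a twofold rise or more, about +100% in these data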;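 note: firefly luciferase made from a UUG start codon reports start codon fidelity; reporter light over untreated wells divided by growth signal over untreated wells; some hits fall short of that in this replicate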
MT1-MMP act inh RFP = also measured in MT1-MMP act inh; calls as there; RFP signal change, %; measured here: RFP expression control read;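 0 = vehicle wells; hits needed this value within 50% of zero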
Starred values were filed as active, the others as inactive; i = inactive; nt = not tested or not shown; & = joins results of further samples.

SMILES	HIV Env fusion	PABP polyA inh	CSC inhib	eIF4H inh	Rce1 inh	MT1-MMP act inh	MT1-MMP act inh RFP	Yeast UUG start
COc1cccc(-c2nc(CSCC(=O)N3CCc4ccccc43)c(C)o2)c1	13	34	-8	2	i	1	-3	-19
Cc1ccc(-n2nc3c(c2NC(=O)c2ccco2)CS(=O)C3)cc1 (centres undefined)	88*	0	-3	-9	i	-2	3	-5
CCCCCc1cc(=O)c2ccccc2o1	-7	nt	nt	nt	nt	1	4	-22
CCC(C)NC(=O)C1CCN(c2nc(C)cc(C)n2)CC1 (centres undefined)	0	0	-21	0	i	7	7	-22
COc1ccc(C(=O)N2N=C(c3cccc(OC)c3)CC2(O)C(F)(F)F)cc1 (centres undefined)	9	5	-5	-6	i	5	-2	-4
COc1ccccc1CO/N=C/NC(=O)c1c(OC)ccnc1Oc1ccc(F)cc1	5	4	-9	-6	i	14	2	-1
Cc1cc(C)n2nc(SCC(=O)N(C)c3ccccc3)nc2n1	nt	-1	nt	-1	i	2	3	-13
Clc1cc(-c2ccccc2)nc(-c2ccccc2)n1	-5	nt	4	nt	i	-2	3	nt
CC(SC1=NCCS1)C(=O)Nc1nnc(-c2ccc(F)cc2)s1 (centres undefined)	-13	-2	31	-7	i	-7	-6	-21
CCOC(=O)CN1C(=O)C(=O)N(Cc2ccccc2)C1=O	6	3	15	-1	i	9	11	-17

Structures shown so far containing a carbonyl joined to an NH by a bond outside any ring, in the order listed:
SMILES	HIV Env fusion	PABP polyA inh	CSC inhib	eIF4H inh	Rce1 inh	MT1-MMP act inh	MT1-MMP act inh RFP	Yeast UUG start
Cc1ccc(-n2nc3c(c2NC(=O)c2ccco2)CS(=O)C3)cc1 (centres undefined)	88*	0	-3	-9	i	-2	3	-5
CCC(C)NC(=O)C1CCN(c2nc(C)cc(C)n2)CC1 (centres undefined)	0	0	-21	0	i	7	7	-22
COc1ccccc1CO/N=C/NC(=O)c1c(OC)ccnc1Oc1ccc(F)cc1	5	4	-9	-6	i	14	2	-1
CC(SC1=NCCS1)C(=O)Nc1nnc(-c2ccc(F)cc2)s1 (centres undefined)	-13	-2	31	-7	i	-7	-6	-21

Other structures follow.
SMILES	HIV Env fusion	PABP polyA inh	CSC inhib	eIF4H inh	Rce1 inh	MT1-MMP act inh	MT1-MMP act inh RFP	Yeast UUG start
CC1=C(C(=O)OC(C)C)C(c2cccs2)N2C(=O)C(C)SC2=N1 (centres undefined)	nt	-2	4	-8	i	-24	-17	-47
Cc1ccc(Cn2nc(C)c3cc(C(=O)OCC(N)=O)sc32)cc1	nt	-10	-1	-11	i	4	-4	13
O=C(CN1CCN(Cc2ccccc2)CC1)N1CCCc2c1c(=O)oc1ccc(O)cc21	24	-9	15	-1	i	-2	-8	2&1
Cc1cc(C)c(NC(=O)Cc2ccc(-n3cccc3)cc2)c(C)c1	10	-19	-7	-5	i	1	5	-18
O=S(=O)(c1ccccc1F)N1CCN(c2nc3ccccc3s2)CC1	-12	-13	-17	-4	i	6	1	nt
CCOc1ccc(NC(=S)NCc2nc3ccccc3[nH]2)cc1	-13	4	-12	0	i	2	1	nt
O=C(NCCN1CCOCC1)c1cc(-c2ccc(Br)cc2)on1	12	1	-6	5	i	0	2	-8
CCc1nc2sc3ccccc3c(=O)c2c(=O)n1CCOC	-85	0	-15	-1	i	-2	-3	-8
N#Cc1c(N)n[nH]c1CCCN	nt	9	-2	0	i	1	-1	-3
O=C(NCC1(c2ccccc2)CCCC1)c1ccc(Br)o1	nt	3	4	2	i	-3	-2	nt
Cc1ccc(C(=O)N2CCCC(CCC(=O)N3CCN(c4ccccn4)CC3)C2)cc1 (centres undefined)	6	5	nt	-10	i	6	-8	-5
CCC1CCCCN1CCCNC(=O)CN1C(=O)c2cccnc2Oc2ccc(C)cc21 (centres undefined)	-12	-6	-1	-4	i	4	3	-11
O=C(NCc1cccs1)C1CCCN1C(=O)Nc1cccc(F)c1 (centres undefined)	-6	-8	0	5	i	1	-1	0
O=C(Cc1ccc(NC2=NC3CS(=O)(=O)CC3S2)cc1)NCc1ccccc1Cl (centres undefined)	-19	6	nt	-2	i	4	6	3
Cc1cc(NS(=O)(=O)c2ccc(NC(=O)C(C)Oc3ccc4c(C)cc(=O)oc4c3)cc2)no1 (centres undefined)	nt	1	-9	-5	nt	1	5	-3
COc1c2c(c3c(c1OC)c(=O)c1ccccc1n3C)OCO2	-7	nt	nt	nt	nt	-8	4	-12
COc1cccc(-c2nc(CS(=O)(=O)CC(=O)NC3CCC(C)CC3)c(C)o2)c1 (centres undefined)	3	-3	-5	-10	i	3	-3	nt
CC(=O)Nc1cccc(NC(=O)CSc2ccc3nnc(CCNC(=O)c4ccccc4)n3n2)c1	6	12	17	-10	i	-6	0	nt
CCOC(=O)c1ccccc1NC(=O)c1cn(-c2ccc(C)c(C)c2)c(=O)c2ccccc12	1	-3	7	-1	i	-9	-5	nt
CC(C)(C)C(=O)NNC(=O)c1ccc(Oc2cc(Cl)cc(Cl)c2)o1	0	-3	-11	-3	i	-5	-2	nt
COC(=O)C1=C(C)NC2=C(C(=O)CCC2)C1c1ccsc1 (centres undefined)	nt	-17	nt	-6	i	nt	nt	nt
C/C(=C\c1ccco1)C1Nc2cccc3cccc(c23)N1	nt	116*	46	107*	i	nt	nt	nt
COCCCNC(=O)C1CCC(=O)N(c2ccc3c(c2)OCO3)C1c1ccc(OC)cc1 (centres undefined)	-23	-1	-8	-8	i	1	4	-11
Cc1ccc(C(=O)NCC(=O)N2CCN(c3ccccc3)CC2)cc1	10	-6	-17	-6	i	1	2	-6
O=C(c1ccco1)N(c1ccccn1)c1ccccn1	3	-1	12	-3	i	-1	7	1
CN(C)S(=O)(=O)N1CCN(S(=O)(=O)N2CCOCC2)CC1	3	2	-9	0	i	-1	4	nt
OCCN1CCN(CCCN2c3ccccc3CCc3ccccc32)CC1	-2	nt	nt	nt	nt	4	0	-8
CSc1ncccc1C(=O)N1CCCC(N2CCN(c3ccccc3F)CC2)C1 (centres undefined)	4	-5	6	-21	i	5	0	-19
Cn1c(=O)cc(SCC(=O)NCCCN2CCOCC2)c2ccccc21	-36	-7	-8	1	i	8	7	-21
CCC(=O)c1ccc(OCC(=O)OCc2csc(CC(=O)Nc3ccccc3C)n2)cc1	-12	nt	nt	nt	nt	0	1	-21
Cc1ccc(-c2cnc3n2CCCCC3)cc1	9	1	6	-12	i	0	-5	nt
CCN(CC)c1ccc(NC(=O)c2c(C)noc2C)cc1	-6	-3	-8	-7	i	0	7	-4
O=C(Nc1ccc(N2CCOCC2)cc1)c1ccc(Br)o1	-25	-8	nt	5	i	4	3	-28
CCOc1ccccc1C1CC(c2ccc(F)cc2)Nc2nc(N)nn21 (centres undefined)	5	-8	-22	-6	i	4	2	-11
C=CCN1C(=NC(=O)COc2ccccc2)SC2CS(=O)(=O)CC21 (centres undefined)	5	7	-22	-3	i	3	2	-7
Cc1ccc(C(=O)NCCn2cc(SCC(=O)N3CCOCC3)c3ccccc32)cc1	-27	-4	-4	-10	i	-1	-3	-18
Cc1ccc2cc3cc(C(=O)NCc4ccco4)oc3nc2c1	-136	4	5	8	i	4	-1	-17
CCOc1ccccc1OCCOc1ccccc1OC(C)C	nt	1	-8	-1	i	1	2	-10
CCOc1ccc(C(=O)NC(=S)N2CCN(c3ccc(C(F)(F)F)cc3[N+](=O)[O-])CC2)cc1	11	5	-3	8	i	5	3	nt
CC(=O)/C(=C/N(C)C)C(=O)Nc1ccc(Cl)cc1Cl	0	-8	1	1	i	-5	-3	nt
CN(C)S(=O)(=O)c1cc(NC(=O)COC(=O)C2COc3ccccc3O2)ccc1Cl (centres undefined)	-7	3	5	-4	i	1	3	nt
COc1ccc(N2CC(O)=C(c3nc4ccccc4s3)C2=N)c(OC)c1	-1	4	2	4	i	5	-1	-11
CSc1ncccc1C(=O)OCC(=O)Nc1ccc(N2CCOCC2)cc1	nt	nt	1	nt	nt	0	1	-15
CCn1c2ccccc2n2c(=O)c(=O)n(CC(=O)N3CCN(c4ccccc4OC)CC3)nc12	nt	0	-9	2	i	nt	nt	nt
COc1ccccc1CCC(=O)OCC(=O)Nc1ccc(C(N)=O)cc1	-2	12	-2	-6	i	0	2	-3
CCOC(=O)c1ccccc1NC(=O)c1cncc(Br)c1	nt	-5	nt	-8	i	4	1	-21
CCCCn1c(N)c(N(CCOC)C(=O)c2ccc(Br)s2)c(=O)[nH]c1=O	nt	nt	4	nt	i	-4	-2	nt
CC(=O)c1ccc(-c2ccccc2OC(F)(F)F)o1	-28	12	-8	1	i	-1	1	nt
CCOc1ccc(/C=N/NC(=O)C(C)N(c2ccc(OC)cc2)S(C)(=O)=O)cc1OCC (centres undefined)	32	-6	nt	6	i	-2	4	3
O=C(CC(SCc1ccco1)c1ccc(O)cc1)c1cccs1 (centres undefined)	nt	17	44	-4	i	-6	-5	-18

(cont.)
SMILES	HIV Env fusion	PABP polyA inh	CSC inhib	eIF4H inh	Rce1 inh	MT1-MMP act inh	MT1-MMP act inh RFP	Yeast UUG start
Cc1ccc(N2C(=O)CC(Sc3ccccc3C(=O)O)C2=O)cc1 (centres undefined)	-6	-4	-4	1	i	-2	3	nt
CCCc1nn(C)c(C(=O)Nc2cccc(C)c2)c1Cl	nt	3	-3	-4	i	0	-5	nt
CCN(CC)C1CCS(=O)(=O)C1 (centres undefined)	0	19	-8	2	i	-1	0	nt
Cc1ccc(CNC(=O)CCc2ccccc2)cc1	-2	1	-12	-7	i	-1	7	13
COCCCNC(=O)C1CCCN(S(=O)(=O)c2ccc(C)cc2)C1 (centres undefined)	nt	8	-15	-9	i	-5	4	-13
O=C(Nc1ccc(F)cc1F)c1ccc2c(c1)[nH]c(=O)n2Cc1ccc(F)cc1	14	-3	3	-6	i	2	-12	-17
CCc1sc(C(=O)NCCc2ccc(S(N)(=O)=O)cc2)cc1C	13	10	-12	11	i	2	-1	-10
NN(CCO)C(=S)Nc1ccc(Cl)cc1	33	29	-4	-3	i	4	-4	-23
O=C(NCCCCC(NC(=O)C1CCCCC1)C(=O)O)c1ccccc1 (centres undefined)	nt	-1	0	-10	i	-2	1	3
CCOC(=O)C1(CCCc2ccccc2)CCN(Cc2ccn[nH]2)CC1	11	-2	28	0	i	0	-1	6
CC(C(=O)Nc1ccon1)N1C(=O)c2ccccc2S1(=O)=O (centres undefined)	-5	nt	-7	nt	i	0	3	-5
Cc1cc(=O)n2[nH]c(-c3ccc(F)cc3)nc2n1	-120	6	-3	-3	i	1	3	-14
O=C(Nc1ccsc1C(=O)N1CCCC1)c1ccccc1	-23	2	-4	-1	i	-3	-2	nt
Cc1ccsc1/C=N/Nc1ccc(C(=O)O)cc1	52	-2	-7	-16	i	-4	3	-56
CCn1c(SCC(=O)N2CCCC2)nnc1-c1ccc(S(=O)(=O)N2CCCCCC2)cc1	4	-1	-9	-4	i	2	-4	-5
CCCCN(CC)C(=O)Cn1ncc2c1-c1cc(C)ccc1OC2	26	4	-20	-2	i	-2	0	-14
Cc1cc(C)n(-c2ccc(Cl)c(C(=O)Nc3ccc(-c4nnc5n4CCCCC5)cc3)n2)n1	21	3	7	-5	i	4	5	-15
O=C(Nc1ccc(F)c(F)c1)C1=COCCO1	7	nt	-7	nt	i	4	0	-13
Cc1cccc2c1-c1sc(C(=O)N3CCCCC3)cc1CO2	-127	10	nt	-9	i	-5	-3	18
COc1c(C)cc(C(=O)C2CCCN(C(=O)c3cc(C4CC4)[nH]n3)C2)cc1C (centres undefined)	-3	-4	16	0	i	-2	-8	16
COc1cc(C(=O)OC(C)C(=O)Nc2ccc3c(c2)OCCO3)cc(OC)c1OC (centres undefined)	-1	nt	5	nt	nt	3	2	1
O=C(CN1C(=O)NC(c2ccccc2)(c2ccccc2)C1=O)Nc1ccc(N2CCOCC2)cc1	-84	nt	-2	nt	nt	5	-5	5
COc1ccc(NC(=O)NNC(=O)C(C)Oc2ccc3ccccc3c2)cc1 (centres undefined)	5	-9	-12	-7	i	4	1	0
